YopH inh – blocks Yersinia enterocolitica YopH tyrosine phosphatase. actives 0.16% (n = 140,000). fluorescence Ex485/Em525. inhibition, %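 (about 10 µM by stock and volumes)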. AID 898;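 active = inhibition of 50% or more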;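 also: controls were vehicle for no effect and minimum signal wells for full effect; inactives centre near -20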
Arbovirus inh – arbovirus infection inhibition; arbovirus infection cell-based antiviral screen; inhibition, % at 10 µM; actives 0.37% (n = 200,000);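 active = inhibition from about 30%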;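 also: bluetongue infection of BSR cells; cell survival read as ATP light after 72 h; 0% = infected wells without compound and 100% = uninfected wells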
Mtb growth – M. tuberculosis H37Rv growth inhibitors, H37Rv strain (AID 1626). M. tuberculosis H37Rv growth inhibition; higher % means a stronger effect. inhibition, % at 10 µM, or IC50 in µM where a hit was titrated. actives 0.95% (n = 220,000);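 active = confirmed in a dose series; inconclusive = inhibition above 80% but not taken into the dose series; inactive = below 80% or under 30% at every dose of the series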;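 also: bacteria incubated seven days before Alamar blue readout; 0% = bacteria only wells and 100% = bacteria with antibiotic wells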
RecA intein inh – blocks M. tuberculosis RecA intein splicing; P9WHJ3; cell-free RecA intein splicing, fluorescence; inhibition, %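 (about 9 µM by stock and volumes)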; actives 0.75% (n = 290,000); AID 2221; in the data active = inhibition above about 30%; inconclusive = no clear call, values can overlap the other calls;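 also: 0% = vehicle wells and 100% = reference inhibitor control wells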
Target sequence (P9WHJ3 whole entry, looked up): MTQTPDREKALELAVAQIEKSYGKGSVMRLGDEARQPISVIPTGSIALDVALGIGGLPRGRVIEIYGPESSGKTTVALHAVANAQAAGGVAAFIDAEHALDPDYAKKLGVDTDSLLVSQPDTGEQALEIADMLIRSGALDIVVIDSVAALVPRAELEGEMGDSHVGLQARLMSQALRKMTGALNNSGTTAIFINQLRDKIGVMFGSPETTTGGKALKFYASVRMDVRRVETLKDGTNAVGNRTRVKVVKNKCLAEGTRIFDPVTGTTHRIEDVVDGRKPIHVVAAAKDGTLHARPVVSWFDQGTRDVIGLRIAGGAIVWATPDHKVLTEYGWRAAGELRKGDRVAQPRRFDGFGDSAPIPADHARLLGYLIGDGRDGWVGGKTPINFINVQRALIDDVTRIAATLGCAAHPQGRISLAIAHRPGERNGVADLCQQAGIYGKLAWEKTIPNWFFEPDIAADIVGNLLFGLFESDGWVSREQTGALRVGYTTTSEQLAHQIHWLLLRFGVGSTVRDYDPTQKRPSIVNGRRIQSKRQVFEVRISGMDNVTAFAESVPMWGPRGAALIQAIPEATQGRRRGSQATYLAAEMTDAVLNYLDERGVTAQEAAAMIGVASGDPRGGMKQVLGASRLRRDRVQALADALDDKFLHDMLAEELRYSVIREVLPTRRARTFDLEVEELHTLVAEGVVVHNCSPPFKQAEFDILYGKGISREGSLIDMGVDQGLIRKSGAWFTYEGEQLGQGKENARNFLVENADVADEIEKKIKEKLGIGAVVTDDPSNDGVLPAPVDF
Mtb betalactam – beta-lactam sensitization of Mtb H37Rv | M. tuberculosis H37Rv growth with meropenem, percent inhibition; hits of this screen are not shown here | inhibition, % at 25 µM | actives 0.27% (n = 330,000) | AID 434955;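 active = about 74% or more and at least 40 points above the plate without the antibiotic, then above 30% in a dose series; inconclusive = first-round hits that could not be retested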;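 also: growth measured after seven days incubation then overnight dye step; 0% = bacteria only wells and 100% = bacteria with antibiotic; twin plates without the antibiotic show which effects depend on it; some results filed as inactive read as strong as hits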
Arbovirus inh repeat – also measured in Arbovirus inh; calls as there; inhibition, %; measured here: 10K subset replicate screen; many hits read low in the repeat;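 first of two repeat runs on a subset; 0% = infected and 100% = uninfected wells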
Starred values were filed as active, the others as inactive; ? = inconclusive; nt = not tested or not shown. Not all compounds are listed; the hit share may differ from the screen's.

SMILES | YopH inh | Arbovirus inh | Mtb growth | RecA intein inh | Mtb betalactam | others
CCN(CC)S(=O)(=O)N1CCC(C(=O)NCCC2=CCCCC2)CC1 | nt | 4 | 5% | -3.7 | -3
Nc1ncnc(Nc2ccccn2)c1[N+](=O)[O-] | nt | 11 | 9% | -0.7 | 3
COC(=O)C1=NN(c2cccc(C)c2)C2C(=O)N(c3ccccc3OC)C(=O)C12 (stereo not given) | -5 | -6 | -7% | -20 | 6
Cc1ccc(C(C(=O)NC2CCCCC2)N(CCC(C)C)C(=O)CNC(=O)c2ccco2)o1 (stereo not given) | -10 | -5 | 3% | -1.1 | 2
CN(C)S(=O)(=O)N1CCC(Oc2ccc(C(=O)N3CCCCCCC3)cc2)CC1 | nt | nt | nt | 0.2 | 0
Cc1cc(NC(=O)CN2CCCC(C)C2)no1 (stereo not given) | nt | 13 | 0% | -6.3 | -2
Cc1nc(/N=C\N(C)C)sc1C(=O)Nc1ccccc1 | -3 | 8 | -3% | 1.2 | 3
NS(=O)(=O)c1ccc(NNC(=O)c2ccccc2C(=O)O)cc1 | nt | nt | 9% | -4.6 | 40
Cc1ccc(-c2cc(C(=O)N/N=C/c3c(C)nn(-c4ccccc4)c3C)[nH]n2)cc1 | -4 | -18 | nt | -3.2 | nt
O=[N+]([O-])c1cccc(NC(=S)N2CCc3ccccc3C2)c1 | nt | 3 | -2% | 0.3 | -3
COc1cccc(CC2(CO)CCCN(C/C=C/c3ccccc3OC)C2)c1 (stereo not given) | nt | 1 | 40% | 20 | -4
Cc1c(N)c(C)c([N+](=O)[O-])c(C)c1[N+](=O)[O-] | nt | 7 | 4% | -1.2 | 14
CC(C)c1ccc2c(c1)C(c1ccc(N3CCOCC3)cc1)=NNC(c1cccs1)=N2 | -21 | -2 | 7% | 7.8 | 98
O=C(Nc1ccc(F)c([N+](=O)[O-])c1)C1CC(=O)N(Cc2ccccc2)C1 (stereo not given) | nt | 6 | 6% | 1.5 | -3
COc1ccccc1N1CCN(C(=O)c2cc(-c3ccco3)on2)CC1 | -38 | 2 | 6% | -0.5 | -4
O=Cc1ccc(-c2nc3ccccc3s2)o1 | nt | -5 | -9% | -3.5 | 18
Cc1cc(C(=O)CN2C(=O)C(=O)N(Cc3ccccc3)C2=O)c(C)n1-c1ccc2c(c1)OCCO2 | nt | -21 | 0% | 0.0 | -3
Cc1ccccc1-c1nc(CN2CCCC2c2ccc(F)cc2)c(C)o1 (stereo not given) | nt | 4 | 5% | 4.1 | 1
Cc1nnc(N2CCOCC2)c2nn(-c3ccccc3)c(C)c12 | -13 | 12 | 5% | 0.5 | -5
COC(=O)C(Cc1ccc(O)cc1)NC(=O)CCNC(=O)c1ccco1 (stereo not given) | nt | nt | nt | 2.0 | -11

A stretch from further up:
SMILES | YopH inh | Arbovirus inh | Mtb growth | RecA intein inh | Mtb betalactam | others
CCN(CC)S(=O)(=O)N1CCC(C(=O)NCCC2=CCCCC2)CC1 | nt | 4 | 5% | -3.7 | -3
Nc1ncnc(Nc2ccccn2)c1[N+](=O)[O-] | nt | 11 | 9% | -0.7 | 3
COC(=O)C1=NN(c2cccc(C)c2)C2C(=O)N(c3ccccc3OC)C(=O)C12 (stereo not given) | -5 | -6 | -7% | -20 | 6
Cc1ccc(C(C(=O)NC2CCCCC2)N(CCC(C)C)C(=O)CNC(=O)c2ccco2)o1 (stereo not given) | -10 | -5 | 3% | -1.1 | 2
CN(C)S(=O)(=O)N1CCC(Oc2ccc(C(=O)N3CCCCCCC3)cc2)CC1 | nt | nt | nt | 0.2 | 0
Cc1cc(NC(=O)CN2CCCC(C)C2)no1 (stereo not given) | nt | 13 | 0% | -6.3 | -2
Cc1nc(/N=C\N(C)C)sc1C(=O)Nc1ccccc1 | -3 | 8 | -3% | 1.2 | 3

Going on with the list.
SMILES | YopH inh | Arbovirus inh | Mtb growth | RecA intein inh | Mtb betalactam | others
O=C(Nc1ccc2c(c1)OCCO2)NC12CC3CC(CC(C3)C1)C2 | -6 | -12 | 60% | 3.4 | 100
COc1cccc(COC(=O)CCNC(=O)c2ccc(Br)cc2)c1OC | nt | nt | nt | 0.8 | 79
COCCNC(=S)N=Nc1c(O)[nH]c2c(C)cc(C)cc12 | nt | -9 | 0% | -1.3 | -5
Cc1ccc(CN2[C@@H](c3ccccc3)COCCS2(=O)=O)cc1 | nt | nt | nt | 0.3 | -9
COC(=O)c1ccc(CNC(=O)COC(=O)CCN2C(=O)C3CC=CCC3C2=O)cc1 (stereo not given) | nt | nt | nt | -3.0 | -7
CC(=O)c1cccc(CN2CCCC(C(=O)Nc3cccc(-n4cccn4)c3)C2)c1 (stereo not given) | nt | nt | nt | 0.1 | 6
COCC(=O)n1nc(-c2ccc(Cl)cc2)nc1NCc1ccc(F)cc1 | -12 | -19 | 11% | 2.8 | 12
CCN1C(=O)/C(=C/N2CC(C)CC(C)C2)SC1=S (stereo not given) | -32 | 5 | -1% | 0.0 | 0
CN(C)CCCN(Cc1ccccc1)C(=S)Nc1ccc(F)c(Cl)c1 | nt | -21 | -1% | -0.6 | -9
O=C(Nc1nc2ccsc2c(=O)s1)c1ccc(Cl)cc1 | nt | nt | -5% | -3.4 | -6
Brc1ccc(CNc2ccc3ncccc3c2)cc1 | nt | nt | nt | 39* | 86
CCOC(=O)N1CCC(c2nc(C)sc2C(=O)O)CC1 | -8 | 2 | -9% | 0.9 | -12
Cc1ccc(NCc2nnc(SCC(N)=O)n2CCc2ccccc2)cc1 | 9 | -2 | -2% | -1.9 | nt
COc1ccc(S(=O)(=O)N2CCOCC2)cc1C(=O)Nc1ccon1 | -23 | 0 | 2% | -0.6 | 3
Cc1c(-c2ccccc2)[n+](=O)c2c(n1[O-])CCCCC2 | -34 | 2 | 0% | 1.2 | 3
Cc1cccc(-n2c(=S)[nH]c3c(oc4ccccc43)c2=O)c1 | -18 | 4 | 12% | 0.3 | 0
Cc1cc(C(=O)N/N=C/c2cccnc2)cs1 | -19 | -5 | 0% | -2.1 | 9
CN(C)CCCN(C(=O)c1ccc(S(=O)(=O)N2CCc3ccccc3C2)cc1)c1nc2ccc(F)cc2s1 | nt | nt | nt | 6.3 | -9
COc1ccc(CN(C(=O)/C=C/c2ccccc2Cl)C2CCS(=O)(=O)C2)cc1 (stereo not given) | nt | nt | 5% | 3.7 | -7
O=C(C1CCCN(Cc2cccc(F)c2)C1)N1CCCCC1 (stereo not given) | -17 | 6 | -7% | -1.8 | 5
Cc1ccc(NC(=O)CNC(=O)Cc2cccc3ccccc23)c(O)c1 | nt | nt | nt | 0.1 | -16
CNC(=S)NNC(=O)c1sccc1OCc1ccc(Cl)cc1Cl | -27 | 3 | -2% | -1.2 | 4
Cc1ccccc1-c1nc(CS(=O)(=O)CC(=O)NCCCN2CCCC2=O)c(C)o1 | -11 | 8 | -7% | -0.7 | 1
Cc1cccc(OC(=O)c2sc3ncn(C)c(=O)c3c2C)c1 | nt | -3 | nt | -2.6 | 3
COc1cccc(-c2ccc(=O)n(CC(=O)Nc3ccc(S(=O)(=O)NCC(C)C)cc3)n2)c1 | nt | -8 | -7% | -0.7 | 3
COc1cc(/C=C2\C=CC(=O)O2)cc(OC)c1 | nt | nt | nt | -1.4 | 3
COc1ccc(N/N=C(/C(C)=O)N2CCCc3ccccc32)cc1 | nt | nt | 50% | 9.1 | 94
COC(=O)CSc1nc(N)nc(C)c1Br | -5 | -5 | -18% | nt | -3
Cc1cc2n(n1)C(c1cn(-c3ccccc3)nc1C)Nc1ccccc1-2 (stereo not given) | -10 | -7 | 5% | 2.9 | 0
COc1ccc(-n2c(-c3ccc(OC)c(OC)c3)n[nH]c2=S)cc1 | nt | nt | nt | 0.1 | 0
NC(=O)CNC(=O)[C@@H]1CC2(CC(c3ccc(Cl)cc3)=NO2)CN1C(=O)c1ccc(Br)cc1 (stereo not given in full) | -33 | 0 | -8% | -0.5 | 14
O=C(Nc1ccccc1-c1nnn(CC(=O)N2CCc3ccccc3C2)n1)C1CCC1 | -8 | -9 | 12% | -0.4 | -8
O=C(CNCCC1=CCCCC1)Nc1ccccc1N1CCCCCC1 | nt | nt | 5% | 15 | 5
O=C(NC1CCCCCCC1)c1cccc(Cl)c1 | nt | nt | nt | 3.5 | 7
Cc1ccc(-n2cc(CNCCCn3cccn3)c(-c3cccc(C)c3)n2)cc1 | nt | nt | 69% | -0.2 | 93
CCCCOc1cccc(C2(C(=O)O)CCCC2)c1 | -38 | 2 | 0% | nt | -12 | Arbovirus inh repeat=0
O=C(Nc1ccccc1C(=O)N1CCCC1)c1ncoc1-c1cccc(Cl)c1 | nt | nt | nt | 4.8 | -10
Cc1ccc(CNC(=O)Cn2c(=O)c3sccc3n(Cc3ccc([N+](=O)[O-])cc3)c2=O)cc1 | -18 | -11 | 4% | 0.9 | -5
O=[N+]([O-])c1cc(C(F)(F)F)ccc1Sc1ccccn1 | -20 | 1 | -3% | -3.9 | -5
Cn1c(C(=O)NCCN2CCc3ccccc3C2)cc2c(=O)n(C)c3ccccc3c21 | -23 | -5 | 4% | 4.4 | 3 | Arbovirus inh repeat=-1

3 compounds out of the list, ordered by length of the SMILES, smallest number first:
SMILES | YopH inh | Arbovirus inh | Mtb growth | RecA intein inh | Mtb betalactam | others
COc1cc(/C=C2\C=CC(=O)O2)cc(OC)c1 | nt | nt | nt | -1.4 | 3
COc1ccc(-n2c(-c3ccc(OC)c(OC)c3)n[nH]c2=S)cc1 | nt | nt | nt | 0.1 | 0
COc1cccc(-c2ccc(=O)n(CC(=O)Nc3ccc(S(=O)(=O)NCC(C)C)cc3)n2)c1 | nt | -8 | -7% | -0.7 | 3

Carrying on.
SMILES | YopH inh | Arbovirus inh | Mtb growth | RecA intein inh | Mtb betalactam | others
CCCN1CCC(=O)N([C@H](COc2ccccc2)CC(C)C)CC1 | nt | nt | nt | -1.2 | -4
C/C(=N/NC(=O)CCc1ccccc1)c1ccc2c(c1)OCO2 | nt | nt | nt | -0.1 | -2
CCOn1c(=O)c(-c2cccc3ccccc23)[n+]([O-])c2ccccc21 | nt | 5 | 2% | -2.3 | 1
Cc1nn(C)c(Oc2ccccc2)c1CCNS(=O)(=O)c1ccc(Cl)cc1 | -37 | -20 | -3% | 1.1 | 6
O=C(/C=C/c1c(F)cccc1Cl)NCc1ccc2c(c1)OCO2 | nt | nt | nt | -2.0 | -9
CNc1nc(Sc2cccc(C(F)(F)F)c2)cc(C(F)(F)F)n1 | -39 | -17 | -7% | 0.0 | -12
CCOc1ccccc1N(CC(=O)NCc1ccncc1)S(=O)(=O)c1ccccc1 | nt | nt | nt | -0.1 | 1
COc1cc2c3nnc(-c4ccc(F)cc4)c-3cn(Cc3cccc(C)c3)c2cc1OC | -20 | 11 | 30% | -14 | 4
CCOC(=O)C(=O)N/N=C(/c1ccccc1)c1ccc(OC)cc1 | nt | nt | -12% | 0.0 | 3
C=CCn1c(SCC(=O)NCc2ccco2)nc2sc3c(c2c1=O)CCC3 | -37 | 4 | -1% | -0.8 | 9 | Arbovirus inh repeat=-2
CCOc1ccc(OC(=O)C(CCS(C)(=O)=O)N2C(=O)c3ccccc3C2=O)cc1 (stereo not given) | -10 | -26 | -14% | -5.1 | -2
Cc1nc2cccc(C(=O)NCc3ccccc3)c2o1 | -48 | 4 | 8% | 9.1 | -3
Cc1cccc(N(C(=O)c2csnn2)C(C(=O)NC(C)(C)C)c2cccnc2)c1 (stereo not given) | nt | -4 | -6% | -0.8 | -6
CCc1cccc(NC(=O)CCS(=O)(=O)c2cc3c(cc2C)NC(=O)CO3)c1 | nt | nt | nt | -3.3 | -1
Clc1cccc(CN2CCSCC2)c1Cl | nt | nt | nt | -3.4 | 0
O=C(NCc1ccc(-c2csnn2)cc1)c1cc(Cl)cc(Cl)c1 | nt | nt | -11% | 1.1 | -5
Nc1ccc2nc(SCC(=O)N3CCN(c4ccccc4)CC3)sc2c1 | nt | nt | -1% | -1.3 | 6
COc1ccc(N(CC(=O)NCc2ccco2)S(=O)(=O)c2ccc(C)cc2)cc1 | nt | -8 | -4% | 1.6 | -8
COc1ccccc1-c1cc(-c2ccccc2)nc(=O)[nH]1 | nt | nt | nt | 0.6 | ?
C/C(=N\NC(=O)c1ccc(CSc2cccc3cccnc23)cc1)C1CCCCC1 | -25 | -5 | 0% | -1.9 | -6
CC(=O)NS(=O)(=O)c1ccc(N2C(=O)c3ccccc3C2=O)cc1 | nt | 3 | 2% | -1.7 | 1
O=C(COc1ccc2cc(Br)ccc2c1)N1CCCC1 | nt | nt | nt | 4.4 | 10
CCCCc1[nH]nc2c1C1(C(=O)N(CC)c3ccccc31)C(C#N)=C(N)O2 (stereo not given) | -5 | 9 | 65% | 3.2 | -1
N/C(=N\OC(=O)C1CC1)c1ccc([N+](=O)[O-])s1 | nt | nt | -4% | nt | 63
CC(=O)Nc1ccc(N2CCCCC2)cc1 | -1 | 4 | -3% | -0.3 | -4
CCC(=O)N1CC(=O)Nc2ccc(F)cc2C1c1ccc(F)cc1 (stereo not given) | nt | nt | nt | 0.7 | 8

Screening results as filed in PubChem BioAssay.
